Compound activity from PubChem.
2A firefly – lowers the firefly signal of an FMDV 2A StopGo reporter. hit rate 0.23% among 120,000. Potency, µM (series often up to 57.5 µM), for inactives: at the top dose signal change, negative = less light. HEK cells with a luciferase reporter of 2A StopGo recoding; active = well fitted falling curve with a large enough effect; inconclusive = small, poorly fitted or top-dose-only effect; inactive = no such curve, though single readings can be large or run the other way; also: nearly all actives have a fitted effect of over 60% in size; overnight with compound
StopGo RLuc – lowers the Renilla signal of an FMDV 2A StopGo reporter. HEK cells with a luciferase reporter of 2A StopGo recoding. Potency, µM (titrated, usually from 57.5 µM), for inactives: top-dose signal change, negative = less light. hit rate 0.32% among 120,000. AID 1745857; active means well fitted falling curve with a large enough effect; inconclusive means small, poorly fitted or top-dose-only effect; inactive means no such curve, though single readings can be large or run the other way; also: nearly all actives have a fitted effect of over 55% in size; overnight with compound
Numbers without * were called inactive; ? = inconclusive; & = joins results of further samples; [ ] = another dose, or the depositor's remark. % is scaled to controls: 0 for no effect and ±100 for the full control effect; potency is read from the fitted curve at half-maximal effect.

mol	StopGo RLuc	2A firefly
CC(C)(c1ccc(Oc2ccc(C(=O)O)c(C(=O)O)c2)cc1)c1ccc(Oc2ccc(C(=O)O)c(C(=O)O)c2)cc1	-16.3%	-1.4%
COc1cccc(-c2oc3ccc(C)cc3c(=O)c2O)c1	-9.4%	93.7%[activator]
O=C(Cn1c(-c2cccs2)cc2cc(F)ccc21)N1CCN(c2cccc(Cl)c2)CC1	-11.2%	-15.7%
CCC(=O)N1c2ccc(S(=O)(=O)CCC(=O)NCc3ccc(OC)cc3)cc2CC1C (stereo not given)	9.7%	18.7%
CC(C)Cn1c(-c2csnn2)nc2c1c(=O)[nH]c(=O)n2CC(C)C	-6.9%	-5.8%
Cc1ccc(C)c(NC(=O)Cn2c(=O)n(Cc3ccc4c(c3)OCO4)c(=O)c3ccccc32)c1	-0.1%	2.6%
Cc1ccccc1CNC(=O)c1cnc2sc(N3CCC(C)CC3)nn2c1=O	-5.8%	-13.7%
COc1ccc(CNC(=O)CS(=O)Cc2nc(-c3ccc(OC)c(OC)c3)oc2C)cc1 (stereo not given)	32.0%[activator]	6.8%
COc1ccc(C(=O)CSc2nc3cc(C(=O)NC4CCCC4)ccc3c(=O)n2CC2CCCO2)cc1 (stereo not given)	-10.7%	-21.1%
O=C(Nc1ccc(C23CC4CC(CC(C4)C2)C3)cc1)c1ccc(Br)cc1	13.4%	0.0%
NC(=O)CCn1nc(-c2ccccc2)c2ccccc2c1=O	-6.0%	-2.5%
CCN(CC)C(=O)CSc1nc2c(cc1C#N)CCCC2	-7.8%	5.4%
CCOc1cc(OCC)cc(C(=O)Nc2ccc3oc(-c4ccc(OC)c(OC)c4)nc3c2)c1	6.0%	11.4%
COc1ccc(OC)c(CCNC(=O)Cn2nc(C)n3c(cc4sccc43)c2=O)c1	-7.2%	-14.1%
N#C/C(=C\c1cc(Br)c(O)c(Br)c1)c1nc2ccccc2c(=O)[nH]1	-6.9%	-16.7%

(list continues)
mol	StopGo RLuc	2A firefly
CCCCN(CC)C(=O)CSc1nc2n[nH]c(C)c2c(=N)n1-c1ccc(CC)cc1	-11.8%	7.5%
CC(NC(=O)C1CCN(c2nc3ccccc3o2)CC1)c1ccccc1 (stereo not given)	?	-28.3%
O=S1(=O)CCN(C2CCCCC2)c2c(F)nc(F)c(F)c21	-10.3%	-7.7%
COc1ccc(CNC(=O)C(c2ccccc2)c2ccccc2)cc1	-9.5%[1.06 µM]	-0.8%
COc1ccccc1N1CCN(c2cc(C)nc3nc(-c4ccc(Cl)cc4)nn23)CC1	-12.0%	-23.7%
Cc1cc(C)n(-c2nc3ccccc3nc2Nc2ccc(Cl)cc2)n1	5.6%	-2.6%
CC(C)n1cc(NC(=O)c2ccc(F)cc2)cn1	52.5%[activator]	114.3%[activator]
CC(Cc1cccc(Cl)c1)NC(=O)CCCNC(=O)C1CC1 (stereo not given)	7.6%	3.6%
COc1cc(OC)c(NC(=O)CCc2c(C)nc3c4c(C)cc(C)nc4nn3c2C)cc1Cl	10.2%	24.9%
COc1cc(OC)cc(-n2nc(C(=O)Nc3cc(OC)c(OC)c(OC)c3)c3ccccc3c2=O)c1	12.3%	7.5%
Cc1ccc(NC(=O)C2CCCN(S(=O)(=O)c3ccc4[nH]c(=O)oc4c3)C2)cc1 (stereo not given)	-0.8%	-5.7%
COc1ccc(N(Cc2cccs2)C(=O)Cn2nnc(-c3cccc(OC)c3)n2)cc1	23.5%	2.6%
Cc1c2cnn(CC(=O)NCc3cccs3)c(=O)c2c(C)n1Cc1ccccc1	1.9%	36.0%[activator]
COc1ccc2cc(C(=O)NC3CCN(C4CC4)C3)c(C)nc2c1 (stereo not given)	7.3%	0.0%
Cc1cccc2sc(NC(=O)NC3CC(=O)N(c4ccc5c(c4)OCCO5)C3)nc12 (stereo not given)	-8.9%	-4.5%

The list goes on.
mol	StopGo RLuc	2A firefly
Cc1cccc(NC(=O)CC2(C(=O)O)CCCC2)c1C	-11.3%	-4.3%
CC(C)Cc1ccc(CC(=O)O)cc1	-14.5%	-15.1%
c1cc[n+](CCC[n+]2ccccc2)cc1	-9.5%	-6.1%
Cc1cc(Cl)cc2c(C=O)c(C(C)(C)C)[nH]c12	1.0%	16.3%
CCN(CC(=O)Nc1ccc(NC(C)=O)cc1)Cc1coc(-c2ccccc2)n1	30.2%[activator]	15.2%
Cc1ccc(CNc2ncnc3c2c(-c2ccccc2)cn3-c2cccc(Cl)c2)cc1	-16.5%	-22.9%
CCCCCCCn1c(N2CCOCC2)nc2c1c(=O)[nH]c(=O)n2C	-1.1%	2.6%
Cc1cc(Br)ccc1SCC(=O)OCC(=O)NC12CC3CC(CC(C3)C1)C2	-1.5%	-1.1%
COc1cccc(-c2nnn(CC(=O)N3CCC(c4nc5ccccc5s4)CC3)n2)c1	?	?
O=S(=O)(c1ccccc1)N1CCN(Cc2coc(-c3cccs3)n2)CC1	-5.0%	-5.8%
O=C(NC1CCCCCC1)c1ccc(Oc2nccnc2N2CCCCC2)cc1	5.4%	15.9%
COc1ccc(C2=NS(=O)(=O)N(C)C(C(=O)N3CCCC3)=C2)cc1	-10.5%	-11.1%
O=C(CSc1n[nH]c(-c2ccc(F)cc2)n1)NCCc1ccccc1	-2.9%	-2.1%
COC(=O)c1ccccc1NC(=O)Cn1c(=O)n(-c2cccc(C(F)(F)F)c2)c(=O)c2c(C)c(C)sc21	-1.2%	-17.6%
CCCCN(CC)C(=O)Nc1ccc2c(c1)N(C)C(=O)c1ccccc1S2	-9.7%	-14.5%

The results go on:
mol	StopGo RLuc	2A firefly
CN(CC(=O)NC(C)(C)C)C(=O)c1ccc2ccccc2n1	0.8%	6.5%
O=C(NCc1ccccc1S(=O)(=O)N1CCOCC1)c1ccc(Cl)cc1O	138.3%[activator]	6.0%
CC1CCC(C(=O)NC(Cc2ccccc2)C(=O)O)CC1 (stereo not given)	5.1%	16.8%
Cc1ccc(CNc2nc3c(S(=O)(=O)c4ccccc4)nnn3c3ccsc23)cc1	-12.4%	-4.8%
CCc1ccccc1NC(=O)C(C)n1nc(-c2ccc(C)c(C)c2)ccc1=O (stereo not given)	-10.5%	-6.4%
COC(=O)c1ncoc1-c1ccccc1C(=O)N1CCN(c2cc(C)ccc2C)CC1	?	?
Cc1c(C(=O)N2CCC(C)CC2)c(S(=O)(=O)NCCc2ccccc2)c(C)n1C	-37.1%	1.4%
COc1ccccc1-c1c(C)nn2c(SCC(=O)NCc3cccnc3)cc(C)nc12	-2.8%	-5.6%
Cc1ccccc1-c1nc(-c2ccccc2OCC(=O)N2CCCC(C)C2)no1 (stereo not given)	0.0%	61.4%[activator]
Cc1nn2c(-c3cccc(NC(=O)c4ccc(Cl)cc4)c3)nnc2c2ccccc12	4.8%	0.0%
Cc1cccc(N(C)S(=O)(=O)c2ccc(-c3cc(C)no3)s2)c1	-3.1%	0.0%
Cc1cc(C)cc(C(=O)NC2CCCCCCC2)c1	1.2%[1.06 µM]	0.0%
Cn1c(SCc2cc(=O)c3cc(Cl)ccc3[nH]2)nnc1-c1ccccc1	-10.1%	-4.7%
Cc1csc2nc(COC(=O)c3cccc(NC(=O)COc4ccccc4Cl)c3)cc(=O)n12	?	0.0%
COc1ccc(C(CNC(=O)COc2ccc(C)cc2)N2CCCCC2)cc1 (stereo not given)	-7.5%	-13.9%

Further records follow.
mol	StopGo RLuc	2A firefly
COc1ccc(NC(=O)Cn2ncc3c2-c2ccccc2OC3)cc1Cl	?	-21.9%
O=C1CC(c2ccc(Cl)cc2)c2sc(C(=O)O)c(-c3ccc(F)cc3)c2N1 (stereo not given)	18.2%	25.1%
CC(=O)c1cccc(OCC(O)COc2cc3sc(C)nc3c3sccc23)c1 (stereo not given)	-2.1%	-5.3%
Cc1cc(C)cc(Nc2cc(C(=O)NC3CCC(C)CC3)c3ccccc3n2)c1 (stereo not given)	18.4%&28.1%	74.9%&121.2%[activator]
Cc1ccc(Cn2c(CO)cnc2SCC(=O)NCc2ccccc2Cl)cc1	16.1%	-2.3%
CC(=O)Nc1ccc(NC(=O)c2cc3c(=O)n4ccccc4nc3n2C)cc1	10.1%	0.0%
Cc1nn(-c2ccccc2)c2nc(C3CC3)cc(C(=O)Nc3ccc(F)cc3)c12	-14.4%	-13.7%
CC(C)n1c(SCC(=O)NCc2ccccc2)nnc1-c1ccc2c(c1)OCCCO2	?	?
Cc1cc(C)cc(Oc2nc3c(C)cccn3c(=O)c2/C=C(\C#N)c2nc3ccccc3[nH]2)c1	-10.8%	-10.2%
CCCCCCc1ccc(Nc2cccc(C)c2)cc1O	8.0%	21.1%
O=C(Nc1nccs1)C1CC(=O)N(Cc2ccccn2)C1 (stereo not given)	-4.9%	-0.2%
CCn1c(=N)c(C(=O)NC2CCCCC2)cc2c(=O)n3cc(C)ccc3nc21	-2.0%	-2.6%
CC(C)CN(CCNC(=O)c1cn(C)c2ccc(S(=O)(=O)N3CCCCCC3)cc2c1=O)CC(C)C	0.4%	-15.3%
CCOC(=O)c1cnc2c(Cl)cccc2c1Nc1cccc(C)c1	2.5%	15.5%
O=C(COC(=O)c1cc(Cl)ccc1[N+](=O)[O-])Nc1ccc2c(c1)OC(F)(F)O2	-12.4%	-20.3%

(listing goes on)
mol	StopGo RLuc	2A firefly
O=C(Nc1ccccc1)c1occc1-c1ccccc1	-5.6%	76.0%[activator]
COCCn1c(C)c(C)c(S(=O)(=O)c2ccccc2)c1NC(=O)C(C)C	8.9%	-5.5%
Cc1noc(C)c1S(=O)(=O)Nc1c(NC2CCCCC2)c2ccccc2oc1=O	2.3%	-5.8%
COc1ccc(-c2cc3nc(-c4ccccc4)cc(C(F)(F)F)n3n2)cc1	15.8%	-8.1%
Cc1cc(C)cc(NC(=O)CSCc2cc(=O)n3ccsc3n2)c1	-5.5%	-8.9%
CCN(Cc1ccccc1)C(=O)C1CCN(Cc2ccc(C(F)(F)F)cc2)CC1	4.4%[1.06 µM]	?
CCc1cc(=O)oc2c(C)c(OCC(=O)NCCCN(C)C)ccc12	-12.7%	-4.9%
Cc1ccc(C)c(N2CCN(S(=O)(=O)c3cnc(N)nc3)CC2)c1	-1.7%	-15.6%
Cc1noc(-c2ccc(NC(C)c3ccccc3)c([N+](=O)[O-])c2)n1 (stereo not given)	-4.5%	35.9%[activator]
O=C(c1cn[nH]c1-c1ccc(F)cc1)N1CCC2(CC1)OCCO2	-4.6%	-8.9%
CCC(=O)N1CCc2cc(CNS(=O)(=O)c3ccccc3F)ccc21	-9.8%	92.2%[activator]
COc1cc(OC)c(NS(=O)(=O)c2cc(-c3cnc(C4CC4)o3)ccc2C)cc1Cl	314.3%[activator]	-19.6%
COc1ccc(OC)c(/C=C2\Oc3cc(OS(=O)(=O)c4ccccc4)ccc3C2=O)c1	13.1%	0.0%
CC(C)OC(=O)c1cccc(NC(=O)C2=Cc3ccccc3OC=C2)c1	?	?
Cc1c(NC(=O)c2sc3c([N+](=O)[O-])cccc3c2Cl)cccc1-c1nc2ccccc2o1	-4.1%	-2.4%

The final seven compounds of the section above open the next one.
mol	StopGo RLuc	2A firefly
Cc1noc(-c2ccc(NC(C)c3ccccc3)c([N+](=O)[O-])c2)n1 (stereo not given)	-4.5%	35.9%[activator]
O=C(c1cn[nH]c1-c1ccc(F)cc1)N1CCC2(CC1)OCCO2	-4.6%	-8.9%
CCC(=O)N1CCc2cc(CNS(=O)(=O)c3ccccc3F)ccc21	-9.8%	92.2%[activator]
COc1cc(OC)c(NS(=O)(=O)c2cc(-c3cnc(C4CC4)o3)ccc2C)cc1Cl	314.3%[activator]	-19.6%
COc1ccc(OC)c(/C=C2\Oc3cc(OS(=O)(=O)c4ccccc4)ccc3C2=O)c1	13.1%	0.0%
CC(C)OC(=O)c1cccc(NC(=O)C2=Cc3ccccc3OC=C2)c1	?	?
Cc1c(NC(=O)c2sc3c([N+](=O)[O-])cccc3c2Cl)cccc1-c1nc2ccccc2o1	-4.1%	-2.4%
CC1(C)CC(=O)C2=C(C1)OC(N)=C(C#N)C2c1ccc(-c2ccccc2Cl)o1 (stereo not given)	-11.0%	9.5%
CCOC(=O)c1nc(Nc2cccc(C)c2C)c2ccccc2n1	9.3%	11.9%
Cc1ccc(CN(C(=O)CCCc2cccs2)C2CC2)cc1	24.8%	87.2%[activator]
Cc1c(C(=O)Nc2cccc(Cl)c2)sc2ncnc(N(C)c3ccccc3)c12	?	?
O=C(COc1ccccc1F)Nc1ccccc1C(=O)OCc1cc(=O)n2nc(C3CC3)sc2n1	-9.2%	-10.3%
Cc1cc(C)cc(NC(=O)CSc2ncnc3ccccc23)c1	-16.2%	23.3%
O=C(CSc1nncs1)N(Cc1ccc(F)cc1)C12CC3CC(CC(C3)C1)C2	-8.2%	-27.3%
COc1cc(OC)c(OC)cc1CNC(=O)Cc1cccc(C(F)(F)F)c1	6.4%	16.7%
CC(C)Sc1ccccc1C(=O)O	15.7%	71.5%[activator]
CCOc1ccccc1N1CC(c2nc3ccccc3n2CCCCOc2ccccc2)CC1=O (stereo not given)	-9.1%	-8.6%
CCN1CCC(N(Cc2cccc(OC)c2)C(=O)Nc2cccc(C)c2C)CC1	-7.6%	-22.7%
CCN(CC)S(=O)(=O)c1ccc2c(c1)N(CC(=O)Nc1cccc(C)c1C)C(=O)C1CCCN21 (stereo not given)	1.7%	-14.5%
CC(=O)Nc1ccc(NC(=O)c2cn(C)c3ccccc23)cc1	-14.8%	21.7%
COc1ccc(C=O)cc1CSc1ccc(C)cc1	11.2%	0.0%
